VACV Venus inh: inhibitors of vaccinia virus (Venus reporter). Vaccinia virus Venus reporter expression, fluorescence. Potency, µM (titrated, usually from 36.5 µM), for inactives: at the highest dose activity change, negative = inhibition, usual class: inhibitors. 330,000 tested, 0.46% active. AID 720580; active means well fitted inhibition curve with a large enough effect; inconclusive means small, poorly fitted or top-dose-only effect; inactive means no such curve, though single readings can be large or run the other way; tested in A549 cells; further: nearly all actives have a fitted effect of over 30% in size; inactives centre near -10
VACV mCherry inh: vaccinia inhibition (mCherry reporter); Vaccinia virus mCherry reporter infection, fluorescence; about a quarter of the inactives have no number; Potency, µM (titrated, usually from 36.5 µM), for the others: top-dose activity change, negative = inhibition, actives largely listed as inhibitors; 310,000 tested, 0.63% active; AID 720579; active = well fitted inhibition curve with a large enough effect; inconclusive = small, poorly fitted or top-dose-only effect; inactive = no such curve, though single readings can be large or run the other way; tested in A549 cells; further: nearly all actives have a fitted effect of over 35% in size; inactives centre near -10
Numbers without * were called inactive; i = inactive; ? = inconclusive; nt = not tested or not shown; & = joins results of further samples; [ ] = another dose, or the depositor's remark. On the % scale 0 is the no-effect control and ±100 the full control effect; potency means the concentration at half of the fitted maximal effect.

SMILES | VACV Venus inh | VACV mCherry inh
CCSc1nnc2c(n1)OC(c1ccc(OC)cc1OC)N(C(C)=O)c1ccccc1-2 (stereo not drawn) | 9% | -7%
Cc1ccc(NC(=S)NCCC(c2ccccc2)c2ccccc2)c(C)c1 | -21% | -8%
O=C(C[n+]1ccc2ccccc2c1)c1ccc(O)c(O)c1 | -12% | -4%
C=CCNC(=S)N/N=C/c1ccc(N(CC)Cc2ccccc2)cc1 | ? | ?
CCN1C(=O)/C(=C\N(C(C)=O)c2ccccc2)OC1=S | -10% | -28%
CC(C)NC(=O)C(=O)Nc1ccc2c(c1)N(S(=O)(=O)c1cccs1)CCC2 | -29% | -7%
CN(C)CCCN(Cc1ccccc1)C(=S)Nc1ccc(OC(F)F)cc1 | -13% | -25%
COc1ccc(C2C(C#N)=C(N)Oc3c2sc2nc(C)cc(C)c32)cc1 (stereo not drawn) | -13% | -24%
CCOC(=O)c1nc(S(C)(=O)=O)ncc1Cl | 0% | i
CCC(=O)Nc1nnc(SCC(=O)Nc2ccc3c(c2)OCCO3)s1 | -5% | i
O=C(Cn1cc(C(F)(F)F)cc(Cl)c1=O)NCc1ccc(Cl)cc1 | -11% | i
Cc1cc(C)nc(NN=CC2=C(N3CCOCC3)/C(=C/c3ccc(Cl)cc3)CC2)n1 | -5% | ?
O=C(O)CC1(CC(=O)N2CCC(C(=O)O)CC2)CCCC1 | -11% | i
Cc1[nH]ccc(=O)c1OCc1ccccc1 | 5% | -4%
COc1ccc(CCNc2ccc(C(CC(N)=O)NC(=O)Cc3ccc(Br)cc3)cc2[N+](=O)[O-])cc1 (stereo not drawn) | -9% | i
CCCCn1c(=N)c(C(=O)NC2CCCCC2)cc2c(=O)n3cccc(C)c3nc21 | -10% | -11%
CCCCN(CC)CCCNC(=O)C1CCCN(c2ncnc3c2nc2n3CCCCC2)C1 (stereo not drawn) | 6% | 6%
COc1ccc(N(CC(=O)NCC2CCCO2)C(=O)CCC(=O)Nc2nccs2)cc1 (stereo not drawn) | -9% | -12%
Cc1ccccc1S(=O)Cc1ccc(C(=O)NCCCN2CCCCC2)o1 (stereo not drawn) | 4%[7.34 µM] | -7%[7.34 µM]
COc1ccc(NC(=O)CCC(=O)c2cccs2)cc1S(=O)(=O)Nc1ccccc1Cl | -15% | -17%
N#Cc1ccc(COC(=O)CN2C(=O)NC3(CCCC3)C2=O)cc1 | -4% | -16%
O=S(=O)(Cc1ccccc1Cl)N1CCN(Cc2ccc3c(c2)OCO3)CC1 | 2% | -8%
Cc1ccc(NC(=O)CCC(=O)NNC(=O)CCc2ccccc2)c(C)c1 | -4% | 8%
COc1ccccc1-c1csc(C(O)c2ccc(F)cc2)n1 (stereo not drawn) | 7% | -8%
O=C(O)c1cccc(S(=O)(=O)Nc2cccc(S(=O)(=O)N3CCCCCC3)c2)c1 | -16% | -12%

Laid out differently: entries from further up
Order of values: VACV Venus inh, VACV mCherry inh
CCSc1nnc2c(n1)OC(c1ccc(OC)cc1OC)N(C(C)=O)c1ccccc1-2 (stereo not drawn)
    9%, -7%
Cc1ccc(NC(=S)NCCC(c2ccccc2)c2ccccc2)c(C)c1
    -21%, -8%
O=C(C[n+]1ccc2ccccc2c1)c1ccc(O)c(O)c1
    -12%, -4%
C=CCNC(=S)N/N=C/c1ccc(N(CC)Cc2ccccc2)cc1
    ?, ?
CCN1C(=O)/C(=C\N(C(C)=O)c2ccccc2)OC1=S
    -10%, -28%
CC(C)NC(=O)C(=O)Nc1ccc2c(c1)N(S(=O)(=O)c1cccs1)CCC2
    -29%, -7%
CN(C)CCCN(Cc1ccccc1)C(=S)Nc1ccc(OC(F)F)cc1
    -13%, -25%
COc1ccc(C2C(C#N)=C(N)Oc3c2sc2nc(C)cc(C)c32)cc1 (stereo not drawn)
    -13%, -24%
CCOC(=O)c1nc(S(C)(=O)=O)ncc1Cl
    0%, i
CCC(=O)Nc1nnc(SCC(=O)Nc2ccc3c(c2)OCCO3)s1
    -5%, i
O=C(Cn1cc(C(F)(F)F)cc(Cl)c1=O)NCc1ccc(Cl)cc1
    -11%, i
Cc1cc(C)nc(NN=CC2=C(N3CCOCC3)/C(=C/c3ccc(Cl)cc3)CC2)n1
    -5%, ?
O=C(O)CC1(CC(=O)N2CCC(C(=O)O)CC2)CCCC1
    -11%, i
Cc1[nH]ccc(=O)c1OCc1ccccc1
    5%, -4%

One compound at a time, as listed above:
`CCCCn1c(=N)c(C(=O)NC2CCCCC2)cc2c(=O)n3cccc(C)c3nc21` as listed: VACV Venus inh = -10%; VACV mCherry inh = -11%
`COc1ccc(CCNc2ccc(C(CC(N)=O)NC(=O)Cc3ccc(Br)cc3)cc2[N+](=O)[O-])cc1` (stereo not drawn) as listed: VACV Venus inh = -9%; VACV mCherry inh = i

Carrying on:
SMILES | VACV Venus inh | VACV mCherry inh
CN1CCN(C(=O)CCN2C(=O)/C(=C\c3ccc(F)cc3)SC2=S)CC1 | -16% | -1%
O=C(NCc1ccccc1)C1=C[C@H](C2CCCCC2)C[C@H](OCCCCO)O1 | -18% | i
COc1ccc(C)cc1NC(=O)COC(=O)Cc1c[nH]c2ccccc12 | -9% | -3%
CC(C)C[C@H](NC(=O)c1[nH]cnc1C(=O)N[C@@H](Cc1ccccc1)C(=O)OC(C)(C)C)C(=O)OCc1ccccc1 | -27% | i
CC1NC(=O)NC(=O)C1Br (stereo not drawn) | -6% | -13%
CCOC(=O)c1ccc(S(=O)(=O)Nc2cc(S(=O)(=O)Nc3ccc(OC)cc3)ccc2O)cc1 | -6% | -4%
CC(C(=O)NC1CCCCCC1)N(c1ccccc1)S(C)(=O)=O (stereo not drawn) | 0% | -12%
CC(C)=CCC/C(C)=C/COc1ccc2ccc(=O)oc2c1 | -1%&6% | -6%&-6%
CC(C)C(OC(=O)c1ccco1)C(=O)NC1CCCC1 (stereo not drawn) | 14% | i
COc1ccc(NC(=O)c2ccco2)cc1NC(=O)c1ccco1 | -5% | -12%
O=C1/C(=C/c2ccco2)Cc2ccccc21 | -3% | -2%
CCCCn1nnnc1C(c1ccccc1)N1CCN(CCN2CCOCC2)CC1 (stereo not drawn) | -2% | 3%
O=C(CCCOc1ccccc1)NC(=S)Nc1ccccc1 | -11% | -20%
COc1ccc(C(=O)NNC(=O)CSc2nnc(C3CC3)n2C)cc1 | 0% | -7%
CCOC(=O)C(CC)n1nc(C)c2c(C)n(-c3ccc(C)cc3)nc2c1=O (stereo not drawn) | -10% | -8%
CCc1nnc(NC(=O)CSc2ccc(-c3nc4ccccc4[nH]3)cn2)s1 | 1% | ?
CCN(CC)C(=O)C1=C(C)N(Cc2ccc(C(C)(C)C)cc2)C(=O)C(CC(=O)NCCc2ccccn2)C1 (stereo not drawn) | -20% | -16%
O=C(NC1CCCC1)c1cc(S(=O)(=O)N2CCCC2)ccc1Cl | -13% | -17%
COc1cc(NC(=O)C(C)Oc2ccccc2)cc(OC)c1 (stereo not drawn) | 2% | -13%
O=C(O)c1ccccc1-c1ccc([N+](=O)[O-])cc1Cl | -14% | i
COC(=O)c1ccn(C(=O)c2ccc(Cl)cc2)n1 | -5% | -13%
O=C(CC(=O)c1ccccn1)c1ccccc1 | -10% | i
CCc1cc(=O)oc2cc(C)cc(OC(C)C(=O)NCCCN3CCOCC3)c12 (stereo not drawn) | -20% | -6%
Cc1ccc(F)cc1C(=O)N1CCCC(c2cc(C(=O)Nc3ccccc3Cl)no2)C1 (stereo not drawn) | 4% | i
CN1CCN(C2=C(Cl)C(=O)C(c3cnc(N4CCCCC4)s3)=C(Cl)C2=O)CC1 | 72%[activator] | 14%
Other structures:
SMILES | VACV Venus inh | VACV mCherry inh
OC(Cn1cnnc1)c1ccccc1 (stereo not drawn) | 5% | -1%
CC(CCC(=O)NN)C1CCC2C3CCC4CC(O)CCC4(C)C3CCC12C (stereo not drawn) | -3% | -9%
C=Cc1ccc(Cn2c(C)c(CNCCc3cc(OC)ccc3OC)c(C(=O)O)c2C)cc1 | -10% | -19%
COc1ccc(-n2c3c(cc(C(=O)N4CCN(CCO)CC4)c2=O)C(=O)CC(C)(C)C3)cc1 | -6% | i
COc1ccc(CC(=O)OCC(=O)NC(=O)NC2CCCCC2)cc1 | -3% | -6%
CCOc1ccccc1CNC(=O)C1CCN(S(=O)(=O)c2ccc3[nH]c(=O)ccc3c2)CC1 | 0% | 11%
O=C(NCCCn1ccnc1)c1ccc(N2CCCCCC2)c([N+](=O)[O-])c1 | -13% | i
CCOC(=O)C1CCCN(C(=O)c2sc3nc(C)nc(N4CCOCC4)c3c2C)C1 (stereo not drawn) | -4% | -17%
CS(=O)(=O)Nc1ccc2c(c1)[C@@H]1C[C@@H](CC(=O)NCc3cccnc3)O[C@H](CO)[C@@H]1O2 | -6% | 0%
O=[N+]([O-])/C(C(Cl)=C(Cl)Cl)=C1\Nc2ccccc2O1 | -13% | -7%
Cc1ccc(OCC(=O)Nn2cnnc2)c(Br)c1 | -6% | -9%
Cc1c(NC(=O)Nc2ccc(F)cc2)c(=O)n(-c2ccccc2)n1C | -11% | -4%
CC(=O)c1c(C)oc2ccc(NS(=O)(=O)c3cccs3)cc12 | -9% | i
Cc1cccc(NN=C2c3ccccc3-c3ccccc32)c1 | -8% | -10%
COc1ccc(-c2[nH]ncc2/C=N\NS(=O)(=O)c2ccccc2)cc1OC | ? | nt
COc1ccc([C@H]2C[C@H](n3cc(-c4ccc(F)cc4)nn3)[C@@H](O)CN2C(=O)C2CCCCC2)cc1 | -16% | i
Fc1ccccc1N1CCN(CCCc2ccccc2)CC1 | -8% | -10%
CC(C)N(Cc1ccccc1)C(=O)COC(=O)c1cc(S(=O)(=O)N(C)C)ccc1N1CCCC1 | -6% | -4%
N#Cc1c(/N=C/c2cccnc2)sc2c1CCCC2 | -5% | -53%
CC1(C)Cc2c(c(-c3ccccc3)nc(N3CCOCC3)c2C(N)=O)CO1 | 10% | nt
Cc1ccccc1CNC(=O)Cn1ccc2cc(S(=O)(=O)N3CCCCC3)ccc21 | -5% | -5%
CC/C(=N/Nc1ccc(Cl)cc1)c1cnnc(SC)n1 | 0% | -13%
C=CCNC(=O)C(=O)c1cccn1-c1ccsc1C(=O)OC | -26% | i
COC(=O)c1ccc(COc2ccc(C)cc2[N+](=O)[O-])o1 | -8% | i
COc1ccc(CNC(=O)c2cnn3c(C)c(Cc4c(F)cccc4Cl)c(C)nc23)cc1 | -27% | -24%
Next compounds:
SMILES | VACV Venus inh | VACV mCherry inh
Nc1nc2ncccc2cc1C(=O)NCCc1cccs1 | -20% | -8%
COc1cccc(N2CCN(C(C)C(=O)NC34CC5CC(CC(C5)C3)C4)CC2)c1 (stereo not drawn) | 8% | ?
O=C(Cc1ccccc1)NCc1cccnc1 | -3% | -12%
CC(=O)/C=C1\OCc2ccccc21 | -6% | -9%
O=C(OCC(=O)N1CCc2ccccc21)c1ccc[n+]([O-])c1 | -3% | -14%
CCOc1ccccc1NC(C)C(=O)Nc1cc(C(F)(F)F)ccc1N1CCOCC1 (stereo not drawn) | -15% | -2%
COc1ccc(N(C(=O)c2ccco2)C(C(=O)NC2CCCCC2)c2cccs2)cc1OC (stereo not drawn) | -11% | nt
CCOC(=O)c1c(C)n(C)c2ccc(OC)c(NC(=O)CN3CCSCC3)c12 | -17% | -20%
COc1ccc(COc2ccc(S(=O)(=O)N3CCCC3)cc2C(N)=O)cc1F | -4% | -8%
CC(/C=N/NC(=O)CSc1n[nH]c(=O)[nH]c1=O)=C\c1ccccc1 | 3% | -13%
Cc1ccc(CNC(=O)c2ccc3c(=O)[nH]c4c(C(=O)NCC5CCCO5)sc(=S)n4c3c2)cc1 (stereo not drawn) | -8% | -12%
Cc1cc(C(F)(F)F)nc(-n2cc(-c3ccccc3)nn2)n1 | -9% | i
COc1ccc(OC)c(CCNC(=O)c2c(C)nn(-c3ccc(F)cc3)c2-n2cccc2)c1 | 0% | -9%
O=C(Cc1ccccc1)NN1C(=O)C2C3C=CC([C@@H]2C1=O)C31CC1 (stereo partly drawn) | -10% | -1%
CCCc1cc(=O)oc2cc(C)c3c(-c4ccccc4)c(C)oc3c12 | -9% | -10%
Cc1nn(C)c(C)c1CNC(=O)c1cnn2c1NC(c1ccccc1)CC2C(F)(F)F (stereo not drawn) | -14% | -10%
COc1cc(/C=C/C(=O)OCC(=O)NCc2cccs2)ccc1OCC#N | -4% | -13%
Cc1nonc1CN(C)C(=O)C1CC12CCN(C(=O)/C=C/c1cccc(Cl)c1)CC2 (stereo not drawn) | -10% | 0%
CC1=NN(c2ccc(C(=O)O)cc2)C(=O)/C1=C\c1ccc(OC(=O)c2cccs2)cc1 | 0% | 3%
CCOC(=O)c1sc(N2C(=O)c3oc4ccc(F)cc4c(=O)c3C2c2ccc(O)cc2)nc1C (stereo not drawn) | -12% | -1%
CCCCc1nn2c(=O)cc(COC(=O)c3cccc(OC)c3)nc2s1 | -7% | -9%
CCC(=Nc1ccccc1OC)C1=C(O)CC(c2ccccc2)CC1=O (stereo not drawn) | -8% | i
Cc1cc(NC(=O)CCC(=O)N(CC(=O)NCC2CCCO2)Cc2ccc(F)cc2)no1 (stereo not drawn) | -1% | -6%
CCOC(=O)C(C)(CC)NC(=O)CSP(=S)(OCC)OCC (stereo not drawn) | -6% | -11%
COc1ccc(NC(=O)Nc2cccc3cccnc23)cc1 | -6% | -15%
CNC(=O)CN(c1cc([N+](=O)[O-])ccc1OC)S(C)(=O)=O | -10% | -5%
C=CC1(C)CN(Cc2ccco2)S(=O)(=O)c2c(F)cccc2O1 (stereo not drawn) | -13% | -11%
COc1ccc(-c2nc3c(-c4ccc(Cl)cc4)cnn3cc2C)cc1F | -1% | 2%

Bioassay records deposited in PubChem BioAssay by National Center for Advancing Translational Sciences (NCATS).
